# Screening results: PubChem BioAssay, Fisher Drug Discovery Resource Center
# NPYLR7 ag = agonists of mosquito NPYLR7 receptor, primary screen, cell-based, Aedes aegypti, calcium fluorescence, mosquito biting behavior | HEK293T NPYLR7/Galpha15, GCaMP6s calcium fluorescence | activation, % at 10 µM | 270,000 compounds, 0.15% hits | AID 1259423, 2018; in the data active means activation above about 40%;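 further: 0% = vehicle and 100% = reference agonist at the receptor; some compounds past the cut are filed as inactive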
# NPYLR7 ag max-min = also measured in NPYLR7 ag; calls as there; activation, %; measured here: Max-Min RFU normalised activation; some inactives read as strong as hits;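 span of the calcium signal over five minutes; 0% = vehicle and 100% = native peptide agonist; compound fluorescence can raise it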
# An asterisk follows results filed as active; & = joins results of further samples. Some of the compounds tested; count on the stated rates, not on these rows.
SMILES,NPYLR7 ag,NPYLR7 ag max-min
CCOC(=O)C1CCN(C(c2ccc(C(C)C)cc2)C2Sc3nc(C)nn3C2=O)CC1 (stereo not given),4,0
COCCN(CC(=O)N(CCc1c[nH]c2ccccc12)Cc1ccccc1OC)C(=O)Nc1ccc(Cl)cc1,10,20
Cc1cc(C)cc(-n2c(SCC(=O)N3CCc4ccccc43)nc3c(c2=O)SCC3)c1,-8,-10
O=C(Cc1ccc(O)c(Cl)c1)NCc1cccnc1N1CCCCCCC1,-2,1
COc1cccc(CN2CCCC(O)(CN3CCn4cccc4C3)C2=O)c1OC (stereo not given),14,2
Cc1cn2c(/C=C/C(=O)N3Cc4ccccc4CC3C(N)=O)c(C)nc2s1 (stereo not given),4,12
CCOCCCNC(=O)c1cc(NC(=O)Cc2ccc(OC)cc2)ccc1N1CCN(c2ccccc2OC)CC1,-4,0
CCOC(=O)c1nn(-c2ccc(C)cc2)c(=O)cc1OS(=O)(=O)c1ccccc1,-1,5
CCCCN(Cc1cccn1Cc1cccc(C)c1)C(=O)CN(C(=O)c1ccc(F)cc1)C(C)C,0,12
CCCCC(=O)N=c1sc2cc(Br)ccc2n1C,-3,-5
Cc1ccc(-c2csc(-n3[nH]c(C)c(N=Nc4ccc(S(N)(=O)=O)cc4)c3=O)n2)cc1,15,25
O=C(CNC(=O)c1cccc(F)c1)N=Nc1c(O)[nH]c2ccc([N+](=O)[O-])cc12,-11,-16
Cc1nc(N(C)C)nc(-c2cccc(-c3ccn(CCCF)n3)c2)c1C,2,-2
COc1cc(-c2nc3cc(C)ccn3c2NC(C)(C)CC(C)(C)C)ccc1OC(=O)c1ccc(Cl)cc1,5,2
Cc1ccc(C)c(NC(=O)CSc2nc(=O)n(Cc3ccncc3)c3c2CCCC3)c1,-2,-4
CCNC1CN(CCCOC)S(=O)(=O)c2sc(S(N)(=O)=O)cc21 (stereo not given),4,8
O=C(c1cc(=O)c2ccccc2o1)N1CCc2ccccc21,-4,-6
Cc1cc(C(=O)Nc2ccc(NC(=O)CN(C)C3CCCC3)cc2)co1,3,6
S=c1oc(-c2ccc(Br)cc2)nn1CN1CCOCC1,3,1
O=C(NCC(=O)N1CCCC1)Nc1ccccc1I,2,-1
S=c1[nH]nc(-c2ccc3c(c2)OCO3)n1-c1ccccc1,-4,-3
CN1CCN(C(CNS(=O)(=O)c2cccc(Cl)c2)c2cccn2C)CC1 (stereo not given),13,11
Cc1cc(C(=O)CSc2nnc(-c3ccco3)o2)c(C)n1CC(F)(F)F,10,8
Cc1nc(C(F)(F)F)ccc1C(=O)Nc1cccc(-c2cccc(-c3ccc(F)cc3)n2)c1,-7,-6
CCOC(=O)C1=C(C)N=c2s/c(=C/C=C/c3ccccc3)c(=O)n2C1c1ccc(C)cc1 (stereo not given),-1,-7
CCn1c(SCc2c(Cl)cccc2Cl)nnc1-c1c2c(nc3ccccc13)CCC2,-8,-12
CCOC(=O)c1cc(=O)c2ccccc2[nH]1,4,-4
COc1ccc(C)cc1C(=O)Nc1ccc(N2CCCCC2)nc1,2,-1
CC(C(=O)N(C)C1CCS(=O)(=O)C1)N(C)CCOc1ccccc1Cl (stereo not given),-1,-3
COc1ccc(N=Cc2ccc3c(c2)OCCO3)cc1,6,3
CC(=O)c1ccc(-c2nnc(CCC(=O)N3CC4C[C@@H]5CC3C[C@H](C4)C5)o2)s1,5,4
Cc1cc(-n2c(C)cc(C(=O)COC(=O)c3ncc(Cl)c(Cl)c3Cl)c2C)no1,-6,-11
CSc1ccc(OCC(=O)Nc2ccccc2S(C)(=O)=O)cc1,-4,-5
COc1ccc(-n2c(SCCCCC(=O)N3CCN(C(=O)c4ccccc4Cl)C(C)C3)nnc2-c2ccccc2)cc1 (stereo not given),-1,9
CCn1c(C)c(C(=O)CN(CC2CCCO2)C(=O)C(C)(C)CCl)c(C)c1C(=O)OC (stereo not given),-5,0
S=C1NC2(CCCCC2)N=C1c1ccc(Cl)cc1,13,5
COC(=O)[C@@H]1C[C@H](NC(=O)Cc2coc3cc(C)c(Cl)cc23)CN1C,14,-1
CCc1nc2ccc(C(=O)Nc3ccc(OC)c(OC)c3)cn2c1N(C)C(=O)c1cccc(OC)c1,-3,40
Cc1ccc2[nH]nc(C(=O)N(C)C3CCS(=O)CC3)c2c1 (stereo not given),-3&1,-2&4
CCOC(=O)c1coc(N2CCCC3(C2)C(=O)N(C)c2ccccc23)n1 (stereo not given),13,4
COc1cc(C(=O)NC2CCOc3ccccc32)cc2c1OCCO2 (stereo not given),-3,0
CC(Oc1ccc(Br)cc1)C(=O)N1CC=C(c2c[nH]c3ccccc23)CC1 (stereo not given),3,1
CC1CC(=NNc2nc3ccccc3s2)CC(C)(C)C1 (stereo not given),18,8
CC(C)N(CC(=O)N1CCc2sccc2C1c1ccc(Cl)cc1)C(=O)C(C)(C)CCl (stereo not given),1,17
Cc1ccc(CC(=O)NC2CCC(C)CC2)cc1C (stereo not given),2,-1
Cc1cccc(N2CCN(Cc3nc(CC4CC4)no3)CC2)n1,-5,-9
CCOc1ccccc1CN1CCN(CC2=Cc3cc(OC)ccc3OC2)CC1CCO (stereo not given),12,8
CC(C)COc1ccccc1CN(C)C(=O)c1cn(C)c2ccccc2c1=O,0,-3
Cn1cc(S(=O)(=O)N2CC(C(=O)O)c3ccccc32)cc1C(N)=O (stereo not given),1,-2
O=C(c1ccc(Cl)cc1)N1CCCC(OCc2ccc(Br)cc2)C1 (stereo not given),-6,-3
CCOc1ccc(NC(=O)CSc2nc3ccccc3[nH]2)cc1,-4,-11
CC=CC(=O)OCC(=O)c1[nH]c(C)c(C(=O)OCC)c1C,5,6
Cc1cccn2c(=O)c3cc(C(=O)N4CCN(C)CC4)sc3nc12,1,1
COc1ccc(-n2ncc(C(C)NCc3ccc(-n4cccn4)cc3C)c2C)cc1 (stereo not given),-4,-7
C(=Cc1ccccc1)CSc1nnc(-c2ccncc2)o1,-5,-5
Cc1ccc(-n2c(SCc3ccc(C(=O)O)cc3)nnc2-c2ccncc2)cc1,-4,-11
O=C1CCC(C(=O)NC(c2ccc(Br)cc2)C2CCC2)CN1 (stereo not given),-6,-9
COc1ccc(C=C2SC(=O)N(CCNC(=O)CCl)C2=O)cc1OC,-8,-9
CC(C)SC(NC(=O)OCc1ccccc1)C(=O)N1CCC(c2ccc(F)cc2)CC1 (stereo not given),14,2
CCCNC(=O)C1(C)CCCN(Cc2cccnc2)C1 (stereo not given),6,0

# Continuation.
SMILES,NPYLR7 ag,NPYLR7 ag max-min
COc1ccc(-c2ncccc2O)c2ccc(C)nc12,5,2
Cc1nn2c(CN(C(=O)c3ccco3)c3ccccc3)nnc2c2ccccc12,6,5
O=C(NCC(c1cccc2ccccc12)N1CCOCC1)C(=O)Nc1ccon1 (stereo not given),0,4
COCCN1CCN(C(=O)c2cn(C)cc3c(=O)n(-c4ccccc4)nc2-3)CC1,-3,-8
COc1cccc(NCCC(=O)Nc2ccc(F)cc2)c1,0,-3
Cc1nn(CCC(=O)N2CCC(N3CCCC3=O)CC2)c(C)c1C,5,3
Cc1sc(NC(=O)CC(C)(C)CC(=O)Nc2sc(C)c(C)c2C(=O)O)c(C(=O)O)c1C,0,-3
COCC1CCN(C(=O)CC2c3ccccc3CCc3ccccc32)C1 (stereo not given),2,-1
CCN(CC1CCN(CCc2ccccc2C)CC1)C(=O)CC1CCCC1,15,5
Cc1ccsc1CN(C)C(=O)c1cccs1,4,3
CCn1nnc2c(N(CCOC)CCOC)ncnc21,8,1
CCCCCCCC(=O)NCc1cccc(-c2ncc(-c3cccc(OC)c3)[nH]2)c1,5,3
O=C(CCCn1nc(-c2ccc(Cl)cc2)ccc1=O)Nc1ccccc1C(F)(F)F,2,4
COc1cccc(C(=O)Nc2ccc(S(=O)(=O)C(F)F)cc2)c1,-6,-10
CC(=O)Nc1cncc(-c2cccc(C(=O)N(C)C)c2)n1,0,-1
COc1cc(-c2ccnc(N3CCN(S(=O)(=O)c4cc(Cl)cc(Cl)c4)CC3)n2)cc(OC)c1OC,10,1
CCc1[nH]n(-c2ccc(F)cc2)c(=O)c1C1=C(N2CCOCC2)C(=O)N(CC(C)C)C1=O,14,2
CCC(=O)NC1CCCN(C(=O)CC2CCc3ccccc3C2)C1 (stereo not given),-10&-1,-15&0
COc1ccc(NC(=O)c2cc3cc(Br)ccc3oc2=O)c(OC)c1,-6,-12
COc1ccc(C(C)=O)cc1CC1(C)C(=O)Nc2ccc(OC(F)(F)F)cc21 (stereo not given),0,0

# At a glance, some entries already given.
SMILES,NPYLR7 ag,NPYLR7 ag max-min
COc1ccc(-c2ncccc2O)c2ccc(C)nc12,5,2
Cc1nn2c(CN(C(=O)c3ccco3)c3ccccc3)nnc2c2ccccc12,6,5
O=C(NCC(c1cccc2ccccc12)N1CCOCC1)C(=O)Nc1ccon1 (stereo not given),0,4
COCCN1CCN(C(=O)c2cn(C)cc3c(=O)n(-c4ccccc4)nc2-3)CC1,-3,-8
COc1cccc(NCCC(=O)Nc2ccc(F)cc2)c1,0,-3
Cc1nn(CCC(=O)N2CCC(N3CCCC3=O)CC2)c(C)c1C,5,3
Cc1sc(NC(=O)CC(C)(C)CC(=O)Nc2sc(C)c(C)c2C(=O)O)c(C(=O)O)c1C,0,-3
COCC1CCN(C(=O)CC2c3ccccc3CCc3ccccc32)C1 (stereo not given),2,-1
CCN(CC1CCN(CCc2ccccc2C)CC1)C(=O)CC1CCCC1,15,5
Cc1ccsc1CN(C)C(=O)c1cccs1,4,3
CCn1nnc2c(N(CCOC)CCOC)ncnc21,8,1
CCCCCCCC(=O)NCc1cccc(-c2ncc(-c3cccc(OC)c3)[nH]2)c1,5,3
O=C(CCCn1nc(-c2ccc(Cl)cc2)ccc1=O)Nc1ccccc1C(F)(F)F,2,4
COc1cccc(C(=O)Nc2ccc(S(=O)(=O)C(F)F)cc2)c1,-6,-10
CC(=O)Nc1cncc(-c2cccc(C(=O)N(C)C)c2)n1,0,-1

# Next part.
SMILES,NPYLR7 ag,NPYLR7 ag max-min
CC(C)(C)c1nn(-c2ccccc2)cc1C(=O)OCC1CCC(=O)N1 (stereo not given),3,-1
CN(CC(=O)N1CCOCC1)C(=O)CCl,-4,-9
CC(C)c1cc2c(=O)[nH]c(CNCc3ccccc3)nc2s1,19,29
COc1ccc(/C=C/CN2CCCC(OCc3ccccn3)C2)cc1 (stereo not given),-5,-4
CC(C)c1nc(CNC(=O)c2ccc(CC3CCCNC3)cc2)cs1 (stereo not given),5,3
Cc1ccc(S(=O)(=O)N2CCN(Cc3cc(F)cc4c3OCOC4)CC2)cc1,1,5
CC(C)(C)OC(=O)N1C(=O)c2cnc(N)nc2C[C@H]1Cc1ccccc1,6,1
CC1(Cc2ccc(Cl)c(Cl)c2)C(=O)Nc2ccc(-c3ccsc3)cc21 (stereo not given),2,2
COCCCN(CCC(=O)NCCc1ccccn1)C(=O)c1ccoc1,5,5
CCOC(=O)N1CCN(C(=O)c2cc(NC(=O)CC)cc3nc(Cc4ccccc4)n(C)c23)CC1,18,13
Cc1cc(C)n2nc(CC(=O)NC3CCN(Cc4ccccc4)C3)nc2n1 (stereo not given),2,-2
CCCN1N=C(C)Cn2c1nc1c2c(=O)n(Cc2ccc(C)cc2)c(=O)n1C,0,5
CC1CCN(c2ccc(NC(=O)COCc3ccccc3)cc2C(=O)NCCc2ccccc2)CC1,-3,-3
COC(=O)c1ccc(Cn2c(C)c(C(=O)NCc3ccc(C#N)cc3)sc2=O)o1,5,-1
CCn1nc(C(=O)N2CCCC(O)(CO)C2)cc1C (stereo not given),7,5
CC(C)(Oc1ccc2c(c1)CCCC2=O)C(=O)N1CCC(C(=O)N2CCOCC2)CC1,3,0
CCn1nc(C(C)(C)C)cc1C(=O)N1CCCC(C(=O)N(CC#N)Cc2ccccc2)C1 (stereo not given),8,1
CCSc1nc(NC(C)C)c2cnn(CCNC(=O)Cc3cccs3)c2n1,-2,-4
COc1nc(-c2ccc(Cl)c(Cl)c2)n(-c2ccc(NC(=O)c3ccc(F)cc3)cc2)n1,-2,-2
COCc1cc(N2CCN(C)CC2)nc(SCc2cccc(C(=O)NCCN3CCOCC3)c2)n1,10,6
Cc1ccc([N+](=O)[O-])cc1S(=O)(=O)N(C)CC(=O)N(C)C,-6,6
O=C1NC(=Nc2ccccc2)S/C1=C/c1cccc(Oc2ccccc2)c1,-3,-6
Cc1cc2cc(CNC(=O)Nc3ccc(Cl)cc3)ccc2n1C,10,12
CCc1c(C)nn(-c2ccc(C(=O)NCCSCc3ccccc3)cc2)c1C,-15,-20
O=C(CC1(O)C(=O)Nc2ccc(Br)cc21)c1cccnc1 (stereo not given),2,3
CC1CCCN1C(=O)c1ccc2nc(-c3cccs3)[nH]c2c1 (stereo not given),-4,-6
COc1cccc(C(=O)N(CC(=O)N(CCc2c[nH]c3ccccc23)Cc2ccc(C)cc2)C2CC2)c1,22,23
CNC(=O)COC(=O)c1cc(OC)c(OC)c(OC)c1,0,-1
CCC(=O)N1N=C(c2ccc(OC)cc2)CC1c1cn(-c2ccccc2)nc1-c1ccccc1 (stereo not given),-8,-17
CCCCOc1ccc(C(=O)Nc2c(-c3cc(C)cc(C)c3)nc3cc(C)ccn23)cc1,-11,-9
CCN1/C(=C/C2=CC(=O)CC(C)(C)C2)Sc2ccccc21,60*,52*
CN1CC2(CCCN(C(=O)c3ccc(Cn4ccnc4)o3)CC2)OC1=O (stereo not given),8,8
Cc1cnccc1-n1nc(-c2ccccc2)nc1C1C=CCN1 (stereo not given),-2,-3
CCOc1cc(CN2CCCn3cccc3C2c2cc([N+](=O)[O-])ccc2Cl)ccc1O (stereo not given),-7,9
O=C(CSc1nnnn1-c1ccccc1)Nc1c(Cl)cccc1Cl,-5,-10
Cc1nc(-c2ccc(CN3C(=O)CNC3=S)s2)cs1,0,0
O=C(Nc1ccc(Oc2ccccc2F)cc1)C1CCN(C(=O)CC2=CCCCC2)CC1,1&8,0&5
